MARV entry inh: inhibitors of Marburg virus binding or entry into cells; Potency, µM (doses to about 49.2 µM), inactives show top-dose activity change, negative = inhibition, most hits filed as inhibitors; actives 6.5% (n = 18,000); Marburg virus pseudotype entry/binding inhibition, cell-based; control for the full effect not named in the record; many of its hits are not listed in these tables; active means well fitted inhibition curve with a large enough effect; inconclusive means small, poorly fitted or top-dose-only effect; inactive means no such curve, though single readings can be large or run the other way; tested in HEK293 cells; further: luciferase read-out
LASV entry inh: inhibitors of Lassa virus binding or entry into cells; Lassa virus pseudotyped entry inhibition, cell-based qHTS; control for the full effect not named in the record; many of its hits are not listed in these tables; Potency, µM (highest dose often 49.2 µM), for inactives: at the highest dose activity change, negative = inhibition, hits mostly inhibitors; actives 4.1% (n = 18,000); active = well fitted inhibition curve with a large enough effect; inconclusive = small, poorly fitted or top-dose-only effect; inactive = no such curve, though single readings can be large or run the other way; tested in HEK293 cells; further: luciferase read-out
Active calls of the source: *; u = inconclusive; x = no result given; & = joins results of further samples; [ ] = dose if it differs, or a comment. On the % scale 0 is the no-effect control and ±100 the full control effect; potency means the concentration at half of the fitted maximal effect. A portion of the library; rates above refer to the full screens.

SMILES	MARV entry inh	LASV entry inh
CC(C)=CCc1c(O)cc(O)c2c1O[C@H](c1ccccc1)CC2=O	1%	-17%
CCCCN1CC(N2CCN(Cc3cccc(C)c3)CC2)CS1(=O)=O (stereo not given)	17%	-25%
c1ccc(Nc2ncc(-c3ccccc3)o2)cc1	-41%	5µM*
CC=CCCN1C=C(C(C)=O)C(c2ccccc2)NC1=O (stereo not given)	-22%[8.59 µM]	1%[8.59 µM]
COC(=O)c1c(C(=O)OC)c2c3ccccc3cc(C3CC3)n2c1C(=O)OC	12%[8.59 µM]	2%[8.59 µM]
COC1=C[C@H](C(=O)NC2CCN(Cc3ccccc3)CC2)[C@@]2(C)Cc3ccccc3[C@@H]2CC1=O	-18%[8.59 µM]	28%[8.59 µM]
COc1cc2ncn(-c3cc(OCc4ccccc4C(F)(F)F)c(C(=O)N(C)C)s3)c2cc1OC	u	-17%
CO/N=C(\C(=O)N[C@@H]1C(=O)N2C(C(=O)O)=C(CSc3nnnn3C)CS[C@H]12)c1csc(N)n1	25%	-2%
COc1ccc(N2C[C@H](Cc3ccccc3)[C@@H](CC(=O)Nc3ccccc3)C2=O)cc1	-27%	x
CCN1C[C@]2(COC(=O)c3ccccc3N3C(=O)C[C@H](C)C3=O)CC[C@H](OC)[C@@]34[C@@H]5C[C@H]6[C@H](OC)[C@H]5[C@](O)(C[C@@H]6OC)[C@@](O)([C@@H](OC)[C@@H]23)[C@@H]14	-10%	-17%
CC(O)[C@@H]1NC(=O)[C@H](CCCCN)NC(=O)[C@@H](Cc2c[nH]c3ccccc23)NC(=O)[C@H](Cc2ccccc2)NC(=O)[C@@H](NC(=O)[C@H](N)Cc2ccccc2)CSSC[C@@H](C(=O)N[C@H](CO)[C@@H](C)O)NC1=O (stereo not given in full)	9%	-11%
COC(=O)c1ccc2[se]c(CC3CCCCC3)c(I)c2c1	u	u
O=C(/C=C\C=C/c1ccc2c(c1)OCO2)N1CCCCC1	68%[activator][17.8 µM]	43%[activator][17.8 µM]
Cc1ccccc1CN1CCc2nnc(C(C)NC(=O)c3cc(F)ccc3F)n2CC1 (stereo not given)	-1%	-19%
CC(N)(C(=O)O)c1ccc(P(=O)(O)O)cc1 (stereo not given)	14%	-2%
COc1ccc(C=CC2=CC3(C)CC2(C)C(c2ccc(OC)cc2)CC3=O)cc1 (stereo not given)	-13%[8.59 µM]	9%[8.59 µM]
CN1CC(CNC(=O)OCc2ccccc2)CC2c3cccc4c3c(cn4C)CC21 (stereo not given)	10µM*	u
COc1cc(=O)n2c(c1C(=O)NCc1ccsc1)CCN(Cc1nc3ccccc3[nH]1)CC2	18%	4%
COC(=O)[C@H](Cc1ccccc1)NC(=O)O[C@@H]1C(=O)c2cc(Br)ccc2O[C@H]1c1cccc(OC)c1	2%	8%
CCc1nc2cc(C(=O)N3CCC[C@H]3C(=O)OC)cc(NC(=O)c3ccccc3OC)c2n1C	u	-8%
COc1cccc([C@@H]2Oc3ccc(OC)cc3C(=O)[C@H]2OC(=O)NCCOc2ccccc2)c1	-10%	-4%
NC(=O)NCC(N)C(=O)O (stereo not given)	9%	5%
Cc1noc(C)c1S(=O)(=O)N1CCc2nc(-c3ccccc3)c3c(c2C1)CO[C@@H](C)C3	-12%[8.59 µM]	-14%[8.59 µM]
CC(NC(=O)C1CCOCC1)c1nnc2n1CCN(Cc1ccc3ccccc3c1)CC2 (stereo not given)	-23%	33%[activator]

Full records, looked up by structure. Screens in order: MARV entry inh	LASV entry inh
CC(N)(C(=O)O)c1ccc(P(=O)(O)O)cc1 (stereo not given) is listed with 14%	-2%
COC1=C[C@H](C(=O)NC2CCN(Cc3ccccc3)CC2)[C@@]2(C)Cc3ccccc3[C@@H]2CC1=O is listed with -18%[8.59 µM]	28%[8.59 µM]
CC(C)=CCc1c(O)cc(O)c2c1O[C@H](c1ccccc1)CC2=O is listed with 1%	-17%
COc1cc(=O)n2c(c1C(=O)NCc1ccsc1)CCN(Cc1nc3ccccc3[nH]1)CC2 is listed with 18%	4%

Further compounds follow:
SMILES	MARV entry inh	LASV entry inh
COc1ccc2c(c1)OCC(Cc1ccc(OC)c(OC(C)=O)c1)C2=O (stereo not given)	u	-18%
c1cc2cc(c1)C[n+]1ccc(c3ccccc31)NCc1ccc(cc1)CNc1cc[n+](c3ccccc13)C2	10%	-3%
CCCCC[C@H](O)/C=C/[C@H]1C=CC(=O)[C@@H]1C/C=C\CCCC(=O)O	16%&-7%	-9%&-9%
CCCCCCCCCCCCCCCC(=O)NCC(=O)O	4%	0%
COC(=O)C(c1ccccc1)C1CCCCN1 (stereo not given)	3%	2%
N=C(N)c1ccc2cc(OC(=O)c3ccc(N=C(N)N)cc3)ccc2c1	1%&12%	-18%&-3%
COc1cc2c(cc1O)-c1c(O)c(OC)cc3c1[C@H](C2)N(C)CC3	-28%	4%
COc1ccccc1C1CN(Cc2cccc3c2OCO3)Cc2ccccc2O1 (stereo not given)	-9%	-2%
O=C(CCCN1CCC(C(=O)c2ccc(F)cc2)CC1)c1ccc(F)cc1	-38%	-12%
CC(=O)C1=C(C)N(Cc2ccccc2)C(=O)NC1c1ccco1 (stereo not given)	2%[8.59 µM]	x
Cc1ccc(-c2cc3c(NC(=O)C4CC4)ncnc3o2)cc1	44%	27%
CC[C@H](C)[C@H](NC(=O)[C@H](Cc1ccc(O)cc1)NC(=O)[C@H](Cc1cnc[nH]1)NC(=O)[C@H](CCCNC(=N)N)NC(=O)[C@H](CC(C)C)NC(=O)[C@H](C)NC(=O)[C@@H](N)CO)C(=O)N[C@@H](CC(N)=O)C(=O)N[C@@H](CC(C)C)C(=O)N[C@H](C(=O)N[C@H](C(=O)N[C@@H](CCCNC(=N)N)C(=O)N[C@@H](CCC(N)=O)C(=O)N[C@@H](CCCNC(=N)N)C(=O)N[C@@H](Cc1ccc(O)cc1)C(N)=O)[C@@H](C)O)[C@@H](C)CC	5%	-3%
COc1ccccc1C1CN(CC(=O)N2CCC(N3CCOCC3)CC2)Cc2ccccc2O1 (stereo not given)	-27%	34%[activator]
Cc1cccc(C)c1NC(=O)NC1=CCCN1C	-20%	-9%
C[C@@H](ON=C1[C@H]2CCn3c(=O)n(-c4ccccc4)c(=O)n3[C@@H]2[C@H](O)[C@@H]2O[C@H]12)c1cn([C@@H]2COC[C@@H]2O)nn1	36%[activator][8.59 µM]	-19%[8.59 µM]
COc1cc(C2CC(=O)Oc3cc(C)c(Br)c(C)c32)cc(OC)c1OC (stereo not given)	-1%	-20%
C=C[C@H](C)[C@](C)(O)c1ccccc1	u	6%
CN1CCN(c2nc(-c3cccc(NS(C)(=O)=O)c3)nc3ccccc23)CC1	-29%	22%
CC(=O)Nc1cc(C(=O)N2CCc3c(Cl)cccc3C2)cc2ncn(CCc3ccccn3)c12	-4%	-17%
CCCC(=O)Nc1ncnc2c1ncn2[C@@H]1O[C@H]2COP(=O)(O)O[C@@H]2[C@@H]1OC(=O)CCC	-13%[17.8 µM]	-6%[17.8 µM]
COc1ccc(-c2nc3cc(C)ccc3cc2CN(C(=O)c2cccs2)C2CC2)cc1OC	-2%	u
O=C(Cc1ccc(Cl)c(Cl)c1)N1CCCCC1CN1CCCC1 (stereo not given)	7.9µM*	u
COc1ccc(CN2CCc3nnc(CCc4ccccc4)n3CC2)c(OC)c1C	12%	-7%
C[C@@H]1CN(Cc2ccc3c(c2)CN(Cc2cccn2-c2ccc(Cl)cn2)CCO3)C[C@H](C)O1	-18%	4%
CC1(COc2ccc(CC3SC(=O)NC3=O)cc2)CCCCC1 (stereo not given)	53%&3%&-7%&54%[activator]	-2%&-3%&6%&0%
c1ccc2c(c1)c1cc[n+]2CCCCC[n+]2ccc(c3ccccc32)NCCCCCN1	8%	3%
CNC(=O)C[C@H]1C(=O)N(c2ccc(OC)cc2)C[C@@H]1Cc1ccccc1	11%	-17%
COC(=O)CC1c2ccccc2C=C(C2CC2)N1C(=O)OC (stereo not given)	u	-15%
COc1cccc(CO[C@H]2C=C[C@@H](c3ccccc3)O[C@H]2COC(C)=O)c1	8%[8.59 µM]	0%[8.59 µM]
Cc1cccc(C(=O)N[C@H]2CC[C@@H](n3cc(C(=O)N4CCCC4)nn3)CC2)c1	-15%	1%
O=C(C[C@H]1C(=O)N(c2ccccc2)C[C@@H]1c1ccccc1)Nc1ccccc1	-14%	25%
COc1ccccc1C1CC(=O)Oc2cc(OC)c(OC)c(OC)c21 (stereo not given)	8%	6%
O=C(NC(=O)c1ccccc1Cl)Nc1ccc(OC(F)(F)F)cc1	3%	17%
O=C1c2ccccc2CCC1CNCCc1ccc(O)cc1 (stereo not given)	-5%	-6%
COc1cc2oc(=O)cc(-c3ccc(-c4ccc(NC(C)=O)cc4)cc3)c2c(OC)c1OC	60%[activator]	23%
c1ccc(COC[C@@H]2CO2)cc1	10%	-2%

Looked up above:
MARV entry inh, N=C(N)c1ccc2cc(OC(=O)c3ccc(N=C(N)N)cc3)ccc2c1 → 1%&12%
LASV entry inh, CC(C)=CCc1c(O)cc(O)c2c1O[C@H](c1ccccc1)CC2=O → -17%

The results go on:
SMILES	MARV entry inh	LASV entry inh
O=C(NC(=O)c1c(F)cccc1F)Nc1ccc(Cl)c(Oc2ncc(C(F)(F)F)cc2Cl)c1	6%	u
Cc1c(C(=O)N2CCOc3ccccc3C2)sc2ncnc(NCCCN3CCOCC3)c12	3%	1%
O=C1N=c2ccc(N=Cc3c(O)[nH]c4ccccc34)cc2=N1	16%	12%
COC/C=C/C1=CC2=CC(=O)C(C)(O)C(=O)C2=CO1 (stereo not given)	2%	6%
Cc1c(C(=O)N2CCC(Cc3ccccc3)CC2)sc2ncnc(NCc3ccccn3)c12	11%	2%
COc1ccc(C2=CC3=C(Br)C(=O)C(C)(OC(=O)C4CCCC4)C(=O)C3=CO2)cc1 (stereo not given)	-8%	-2%
Cc1cccc2cc(CN(CC3CCCO3)C(=O)c3ccccc3F)c(N(C)C)nc12 (stereo not given)	-4%	-10%
COc1cc(O)cc(OC)c1OC	u	-54%
CSc1nc(C(=O)N2CCc3c(cnc(C)c3CNC(=O)c3ccc4c(c3)OCO4)C2)cs1	-13%	-1%
CCCCCCCC(=O)OC[C@H](CO)OC(=O)CCCCCCC	6%&21%	-5%&-1%
CCCCCCN1C[C@H](O)[C@@H](n2cc(COC(=O)c3ccccc3)nn2)C[C@H]1c1ccccc1	u	8%
CN(C)C1C(=O)C(C(N)=O)=C(O)[C@@]2(O)C(=O)C3=C(O)c4c(O)ccc(Cl)c4[C@](C)(O)C3CC12 (stereo not given in full)	u	u
CCCCN1C[C@H](C)[C@@H](CC(=O)Nc2ccc(OC)cc2)C1=O	-22%	13%
O=P1(O)Oc2c(c(-c3ccccc3)cc3ccccc23)-c2c(-c3ccccc3)cc3ccccc3c2O1	-3%	-10%
CN(C)[C@@H]1C(=O)C(C(N)=O)=C(O)[C@@]2(O)C(=O)C3=C(O)c4c(O)ccc(Cl)c4[C@@](C)(O)[C@H]3C[C@@H]12	4%[17.8 µM]	-2%[17.8 µM]
CCC[C@H]1C[C@H](C(=O)N[C@H]([C@@H]2O[C@H](SC)[C@@H](O)[C@H](O)[C@@H]2O)[C@H](C)O)N(C)C1	-11%[17.8 µM]	-5%[17.8 µM]
OCC(O)C(O)C(O)CO (stereo not given)	11%	-6%
CCC(C(=O)O)c1ccccc1 (stereo not given)	-14%	-1%
CC(Cc1ccc2c(c1)OCO2)NO (stereo not given)	15%[107 µM]	-1%[107 µM]
C[C@@H]1C[C@H]2CC(=O)N3[C@H](CC(=O)N2[C@H]1c1ccccc1)C[C@@H](C)[C@@H]3c1ccccc1	15%[8.59 µM]	6%[8.59 µM]
CC(=O)N[C@@H](CC(C)C)C(=O)O	20%	-2%
COC(=O)C1=C(C(=O)OC)[C@@H]2Nc3ccccc3[C@@]23C[C@@H](C(=O)OC)N(C(=O)COCc2ccccc2)C3=N1	6%[8.59 µM]	x
C=CC1=C(C)C2=Cc3c(C=C)c(C)c4[n]3[Sn+2][n]3c(c(C)c(CCC(=O)O)c3=CC3=NC(=C4)C(C)=C3CCC(=O)O)=CC1=N2	5%	-14%
COc1cccc([C@@H]2Oc3ccc(Br)cc3C[C@H]2OC(=O)NCCc2ccc(OC)c(OC)c2)c1	4%	3%

Arranged by length of the SMILES (descending): some entries from above
SMILES	MARV entry inh	LASV entry inh
COc1cccc([C@@H]2Oc3ccc(Br)cc3C[C@H]2OC(=O)NCCc2ccc(OC)c(OC)c2)c1	4%	3%
O=P1(O)Oc2c(c(-c3ccccc3)cc3ccccc23)-c2c(-c3ccccc3)cc3ccccc3c2O1	-3%	-10%
CC(=O)N[C@@H](CC(C)C)C(=O)O	20%	-2%

The list continues.
SMILES	MARV entry inh	LASV entry inh
O=C1C(Cl)=C(Cl)C(=O)C(Cl)=C1Cl	u	-28%
O=C(Nc1ccc(/C=C/c2ccc(NC(=O)c3cc(S(=O)(=O)O)c4cccnc4c3O)cc2S(=O)(=O)O)c(S(=O)(=O)O)c1)c1cc(S(=O)(=O)O)c2cccnc2c1O	3.5µM*	3%
COCOc1ccc(Br)cc1C(=O)C=Cc1ccc2c(c1)OCO2	6%[8.59 µM]	-45%[8.59 µM]
CCc1cc2c(nc1CC)CCN(CCC(C)=NO[C@@H]1O[C@H](COC(C)=O)[C@@H](OC(C)=O)[C@H](OC(C)=O)[C@@H]1OC(C)=O)C2	-19%[8.59 µM]	5%[8.59 µM]
CC(NC(=O)c1cc(F)ccc1F)c1nnc2n1CCN(Cc1ccc(-c3ccccc3)cc1)CC2 (stereo not given)	-33%	u
NCCNC(=O)c1ccc(Cl)cc1	7%	-2%
COC1=C(C(=O)c2ccccc2)C(=O)C2(CC=C(C)C)C[C@H](C(=O)OCC(F)(F)F)C(C)(C)[C@@]1(CC=C(C)C)C2=O (tested in a mixture with another compound)	-6%	u

Screens as filed in PubChem BioAssay.
